# Bioassay records: PubChem BioAssay, Fisher Drug Discovery Resource Center
# NPYLR7 agonist: agonists of mosquito NPYLR7 receptor, primary screen, cell-based, Aedes aegypti, calcium fluorescence, mosquito biting behavior; HEK293T NPYLR7/Galpha15, GCaMP6s calcium fluorescence; 270,000 tested, 0.15% active; AID 1259423, 2018; Aedes aegypti neuropeptide Y-like receptor 7 (NPYLR7); activation, % at 10 µM; in the data active = activation above about 40%;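 note: 0% = vehicle and 100% = reference agonist at the receptor; some compounds past the cut are filed as inactive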
# NPYLR7 agonist max-min: further read-out of NPYLR7 agonist, marked with its call; activation, %; measured here: Max-Min RFU normalised activation; some inactives read as strong as hits;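 span of the calcium signal over five minutes; 0% = vehicle and 100% = native peptide agonist; compound fluorescence can raise it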
# * = called active by the depositor. An excerpt (hit frequency here may not be typical).
no.	structure	NPYLR7 agonist	NPYLR7 agonist max-min
1	COC(=O)Cn1c(=O)c2c(nc3n2CCN3c2ccc(OC)cc2)n(C)c1=O	2	3
2	Cc1c(C)n2c3c(=O)n(Cc4ccccc4Cl)c(=O)n(C)c3nc2n1CC1CCCO1 (stereo not drawn)	-3	-5
3	CC1CCCN(c2cc(C(=O)NC(C)C)c3ccccc3n2)C1 (stereo not drawn)	1	-1
4	CCCCCN(C)Cc1csc(Cc2ccc(Cl)c(Cl)c2)n1	1	-2
5	CCCc1ccc(C(C)NC(=O)CN2CCN(c3cn[nH]c(=O)c3)CC2)cc1 (stereo not drawn)	-4	-7
6	COc1ccccc1C1=NOC(CN(Cc2cccc(Cl)c2)C(=O)C(C)C)C1 (stereo not drawn)	15	28
7	COc1cc(OC)cc(-n2c(CCC(=O)NCCCn3ccnc3)cc3c2-c2ccccc2CC3)c1	1	0
8	CCOC(=O)CC1=C(C(=O)OCC)C(c2ccc(F)cc2)C(C#N)C(=N)O1 (stereo not drawn)	-2	-7
9	CCOc1ccc(NC(=O)c2cccn(OCc3ccc(F)cc3)c2=O)cc1	3	2
10	CC1CC(C)CN(C(=O)C(OC(=O)C2CCC2)C(C)C)C1 (stereo not drawn)	8	5
11	CC(C)NC(=O)C1(C)CCCCN1Cc1ccc(OCc2ccccc2)cc1 (stereo not drawn)	2	2
12	Cc1ccc(Cn2cccc2C2=NCCO2)cc1	7	-1
13	Nc1c(-c2nc(-c3ccc4c(c3)OCO4)no2)nnn1-c1ccc(F)cc1	3	1
14	CCNC(=O)C1(C)CCN(Cc2cccc(Oc3ccccc3)c2)C1 (stereo not drawn)	2	2
15	O=S(=O)(NC1c2cccc3cccc(c23)C1N1CCNCC1)c1ccccc1 (stereo not drawn)	7	7
16	CCSc1ccc(C(=O)N2CCCCC2C(=O)NC(C)(C)C)cn1 (stereo not drawn)	7	4
17	COc1ccc(S(=O)(=O)N2CCCCC2c2cn[nH]c2)cc1OC (stereo not drawn)	1	-2
18	CC1=C(C(=O)OC2CCCCCC2)C(c2ccc3c(c2)OCO3)NC(=O)N1C (stereo not drawn)	-5	-7
19	CCCN(Cc1cc(NC(=O)Nc2ccc(C(F)(F)F)cc2)ccc1N(C)C)C(=O)c1ccccc1Cl	1	7
20	CCc1c(C)nc(-n2nc(C)cc2NC(=O)c2ccccc2SC)[nH]c1=O	7	5
21	O=C(NCCCOc1cccc([N+](=O)[O-])c1)c1ccccc1-n1cccc1	-14	-19
22	O=C(c1cc2n(n1)CCN(Cc1ccccc1Cl)C2=O)N1CCOCC1	-2	7
23	COc1ccc(/C=C2\C(=O)N(c3cccc(Cl)c3)N=C2C)cc1[N+](=O)[O-]	-9	0
24	COc1ccc(-c2onc(C)c2C(=O)NCc2cccs2)cc1	-2	6
25	COc1cc(CN2CC(=O)N(Cc3cccnc3)CC(OC)C2)ccc1OCc1ccccc1 (stereo not drawn)	17	6
26	Cc1ccsc1CN(C)CCc1ccncc1	-4	-8
27	CCC1(O)CCCN(c2nc(C)cc(C3CCC3)n2)C1 (stereo not drawn)	6	3
28	CCc1nc(SCC(=O)N2Cc3cnc(-c4ccccc4)nc3C2)n[nH]1	5	4
29	COc1ccc2c(C)c(CC(=O)N3CCn4cncc4C3)c(=O)oc2c1	26	15
30	COc1ccc(S(=O)(=O)Nc2ccc(OC3CCN(C(=O)OC(C)(C)C)C3)cc2)cc1OC (stereo not drawn)	-13	-20
31	FC(F)(F)c1cc(-c2ccco2)nc(N2CCOCC2)n1	-5	-6
32	CC(COc1ccccc1)NCc1ccc2c(c1)n(C)c(=O)n2C (stereo not drawn)	2	2
33	COC(=O)c1cccc(C(=O)N2Cc3cnc(CC(C)C)nc3C2)c1	-3	-3
34	CCOC(=O)C1CCCN(C(=O)c2cc(-c3ccc(OC)cc3OC)nn2-c2cc(C)ccc2C)C1 (stereo not drawn)	-3	3
35	CC[C@H]1CN(C(=O)c2cccnc2N2CCOCC2)CC[C@@]1(C)O	14	2
36	Cc1ccc(C2(O)CCN(C(=O)COc3ccccc3)CC2)nc1	0	-2
37	O=C(CSc1nc2c(c(=O)n1Cc1ccccc1)SCC2)N1CCCC1	4	-4
38	COc1ccc(CC(=O)Nc2c3c(nn2C(C)(C)C)CSC3)cc1	-2	-1
39	COCCN(Cc1ccc(F)cc1)CC(O)Cc1ccccc1 (stereo not drawn)	22	26
40	CC1CC(=O)c2cn3ncnc3nc2C1 (stereo not drawn)	3	-1
41	Cc1cccnc1CC(C)NC(=O)Cn1cnc2ccsc2c1=O (stereo not drawn)	-5	-8
42	O=C(NC1(C(F)(F)F)CCC2(CC1)OCCO2)C1CCN(c2ncccn2)CC1	12	9
43	COc1cc2c(cc1OC)CN(C1CCCN(Cc3nc(-c4ccccc4)no3)C1)CC2 (stereo not drawn)	-4	-9
44	COc1ccc(CCS(=O)(=O)Nc2ccc3c(c2)C(=O)N(C)c2cc(C)ccc2O3)cc1	8	2
45	CCCC12CN(C(=O)C(C)(C)CCCOc3cc(C)ccc3C)CC1C(=O)NC(=O)N2 (stereo not drawn)	-7	-16
46	O=C(Nc1ccccc1N1CCCCC1)c1cccc(N2CCNC2=O)c1	5	5
47	Clc1ccc(CN2CCc3c(cnn3-c3ccccn3)C2)s1	0	15
48	COc1cc(NC(=S)NC(C)(C)CC(C)(C)C)cc(OC)c1	-1	-4
49	O=C(Nc1ccc2c(c1)CN(C(=O)C1=CCCCC1)CC2)c1ccccc1Cl	3	1
50	CCOC(=O)c1ccn(-c2ccc(NC(=O)CC(C)C)cc2)n1	0	-4

# (list continues)
no.	structure	NPYLR7 agonist	NPYLR7 agonist max-min
51	Cc1ccc(C2=CN3CCN=C3S2)cc1	0	-1
52	COc1ccc(OC)c(C=C(C#N)C(N)=S)c1	0	-1
53	COC(=O)COC1C[C@](OCc2ccccc2C)(C(=O)NN2CCOCC2)C[C@H]2OC(C)(C)O[C@@H]12 (stereo partly drawn)	5	11
54	CC(=O)N1CCCC(c2nnc(CC(C)(C)C)o2)C1 (stereo not drawn)	-4	6
55	CCOC(=O)c1oc2ccccc2c1CSc1nnc(C2CC2)n1Cc1ccco1	-8	-13
56	Cc1ccc(C2=NN(S(C)(=O)=O)C(c3ccc4nccnc4c3)C2)cc1 (stereo not drawn)	0	8
57	Cc1cccn2c(CNCc3cnn(Cc4ccccc4)c3)c(C(=O)N3CCCCC3)nc12	10	-1
58	O=C(NCCC1CCCN(Cc2cccnc2)C1)c1ccccc1O (stereo not drawn)	-3	-6
59	COCCN(CC(=O)N(CCc1ccc(OC)c(OC)c1)Cc1ccco1)C(=O)Nc1ccc(OC)cc1	-7	-5
60	COc1ccc(-c2noc(-c3c(SC)nn(CC(=O)Nc4ccc(C(C)C)cc4)c3N)n2)cc1	1	3
61	CCCC(=O)OCC(O)CN(Cc1cccn1Cc1ccccc1C)C1CCCCC1 (stereo not drawn)	-3	-2
62	CCNC(=S)N(CCN(C)C)Cc1c(-c2ccccc2)noc1N1CCCCC1C (stereo not drawn)	12	16
63	c1ccc2sc(N3CCOCC3)nc2c1	2	5
64	CC(C)CCN(Cc1c(-c2ccccc2)noc1N(C)C(C)C)C(=S)Nc1ccc(F)cc1	5	4
65	COCCOCC(=O)Nc1cc(-c2onc3c2CCc2ccccc2-3)ccc1OC	2	-4
66	COC(=O)c1ccc(F)c(NCC(=O)N(C)C2CCS(=O)(=O)C2)c1 (stereo not drawn)	0	-3
67	Nc1nc(CNC(=O)CCC(=O)NC2CCCCCC2)cs1	-1	-2
68	C=CCNc1ccccc1C(=O)NCc1ccc2nonc2c1	24	10
69	CC(OC(=O)c1ccc[nH]c1=O)C(=O)Nc1cccc2ccccc12 (stereo not drawn)	4	3
70	O=C(Nc1ccc2c(c1)OCO2)C(C1CCCC1)N1CCN(C(=O)c2ccc(Cl)cc2Cl)CC1 (stereo not drawn)	9	11

# Compounds above that contain a cyano group, in the order listed:
no.	structure	NPYLR7 agonist	NPYLR7 agonist max-min
8	CCOC(=O)CC1=C(C(=O)OCC)C(c2ccc(F)cc2)C(C#N)C(=N)O1 (stereo not drawn)	-2	-7
52	COc1ccc(OC)c(C=C(C#N)C(N)=S)c1	0	-1

# (list continues)
no.	structure	NPYLR7 agonist	NPYLR7 agonist max-min
71	O=[N+]([O-])c1ccc(S(=O)(=O)NCC(c2cccs2)N2CCc3ccccc3C2)cc1 (stereo not drawn)	0	-4
72	O=C(c1cc(=O)n(-c2ccccc2)[nH]1)N1CCCC(O)(CO)CC1 (stereo not drawn)	9	7
73	COC(=O)c1sc2ccccc2c1NC(=O)c1ccccc1	1	32
74	COc1ccc(C2Nc3ccccc3C(=O)N2c2ccc(F)cc2)cc1Cn1nnc2ccccc21 (stereo not drawn)	-2	-2
75	CCc1nc2n(n1)C(=O)C(C(c1cccc(OC)c1)N1CCN(CC)CC1)S2 (stereo not drawn)	-6	-9
76	Cc1cc(C)cc(NC(=O)c2ccc3c(=O)n4c(nc3c2)CCCCCC4)c1	0	3
77	Cc1cc2ncc(C(=O)NN3CCOCC3)c(C)n2n1	13	10
78	CCS(=O)(=O)c1cccc(C(=O)N(CCCN(C)C)c2nc3ccccc3s2)c1	-2	-1
79	COCCN(CCC(=O)N1CCN(c2cccc(Cl)c2)CC1)c1nc(Cc2ccc(C)cc2)ns1	-11	-5
80	O=C1C2CCCC2=NN1c1ccccc1 (stereo not drawn)	11	9

# Among those listed so far, ten contain a Cl atom:
no.	structure	NPYLR7 agonist	NPYLR7 agonist max-min
2	Cc1c(C)n2c3c(=O)n(Cc4ccccc4Cl)c(=O)n(C)c3nc2n1CC1CCCO1 (stereo not drawn)	-3	-5
4	CCCCCN(C)Cc1csc(Cc2ccc(Cl)c(Cl)c2)n1	1	-2
6	COc1ccccc1C1=NOC(CN(Cc2cccc(Cl)c2)C(=O)C(C)C)C1 (stereo not drawn)	15	28
19	CCCN(Cc1cc(NC(=O)Nc2ccc(C(F)(F)F)cc2)ccc1N(C)C)C(=O)c1ccccc1Cl	1	7
22	O=C(c1cc2n(n1)CCN(Cc1ccccc1Cl)C2=O)N1CCOCC1	-2	7
23	COc1ccc(/C=C2\C(=O)N(c3cccc(Cl)c3)N=C2C)cc1[N+](=O)[O-]	-9	0
47	Clc1ccc(CN2CCc3c(cnn3-c3ccccn3)C2)s1	0	15
49	O=C(Nc1ccc2c(c1)CN(C(=O)C1=CCCCC1)CC2)c1ccccc1Cl	3	1
70	O=C(Nc1ccc2c(c1)OCO2)C(C1CCCC1)N1CCN(C(=O)c2ccc(Cl)cc2Cl)CC1 (stereo not drawn)	9	11
79	COCCN(CCC(=O)N1CCN(c2cccc(Cl)c2)CC1)c1nc(Cc2ccc(C)cc2)ns1	-11	-5

# (next part)
no.	structure	NPYLR7 agonist	NPYLR7 agonist max-min
81	COc1ccc(-c2nc(C(N)=O)c3[nH]c(=O)n(-c4ccc(C(C)(C)C)cc4)c3n2)c(OC)c1	3	5
82	CCn1nnc2c(=O)n(CC(=O)OC)cnc21	-1	19
83	COCCN(Cc1cccc(C)c1)CC(O)COc1ccccc1C (stereo not drawn)	-2	8
84	Cc1cc(-n2cnnc2C(C)n2cccn2)n(C)n1 (stereo not drawn)	2	-1
85	COc1ccc(CN(CCc2c[nH]c3ccccc23)C(=O)CN(CC(C)C)C(=O)C2C[C@H]2c2ccccc2)cc1OC (stereo partly drawn)	3	-8
86	CN(C)CCn1c2c(c3ccccc31)CCCn1nnnc1-2	-1	-4
87	N#CCn1cnc2c(nnn2-c2ccc(Br)cc2)c1=O	-4	-9
88	CCC1c2ccsc2CCN1C(=O)c1cc(C2CC2)[nH]n1 (stereo not drawn)	0	-2
89	O=C(NCCc1csc2nc(-c3ccccc3F)nn12)C1CCCC1	-3	-4
90	OC1CCC(NCc2ccc(-c3ccc(F)cc3)s2)CC1 (stereo not drawn)	-1	-1

# Pulled one by one from the entries so far, 3 records:
no.	structure	NPYLR7 agonist	NPYLR7 agonist max-min
85	COc1ccc(CN(CCc2c[nH]c3ccccc23)C(=O)CN(CC(C)C)C(=O)C2C[C@H]2c2ccccc2)cc1OC (stereo partly drawn)	3	-8
82	CCn1nnc2c(=O)n(CC(=O)OC)cnc21	-1	19
89	O=C(NCCc1csc2nc(-c3ccccc3F)nn12)C1CCCC1	-3	-4

# (list continues)
no.	structure	NPYLR7 agonist	NPYLR7 agonist max-min
91	CCOCCn1ccc2c(NC(=O)c3c(C(F)(F)F)ccc(Cl)c3F)c(OC(=O)N(CC)CC)ccc21	-5	-15
92	COc1ccc(CC(=O)NNC(=O)c2cccn(Cc3ccc(F)cc3)c2=O)cc1OC	-11	-17
93	CC1(C(=O)NCc2ccc(Cl)cc2)CCN1C(=O)c1ccco1 (stereo not drawn)	5	3
94	Cc1ccc(Cn2c(=O)c(C(=O)N3CCCC3)nn(-c3ccc(S(C)(=O)=O)cc3)c2=O)cc1	0	8
95	CO[C@H]1CN(C(=O)c2cnc(C)nc2-c2ccccc2)CC[C@H]1N	8	6
96	Cc1ccc(NC(=O)N(CCN2CCOCC2)Cc2c(-c3ccccc3)noc2N2CCCCC2C)cc1 (stereo not drawn)	8	10
97	Cc1ccc(C(=O)Nc2ccc(-c3cn4ccccc4n3)cc2)o1	2	-3
98	N[C@@H](Cc1ccc(O)cc1)C(=O)N1CCc2onc(-c3ccccc3)c2C1	8	10
99	COc1cc(Br)c(S(=O)(=O)NC2CC2c2cccc(F)c2)cc1OC (stereo not drawn)	10	8
100	CN(CC1CCN(CCc2cccc(C(F)(F)F)c2)CC1)C(=O)c1ccc(F)cc1	3	-2
101	O=C(c1ccc(NCC2CCOC2)nc1)N1CCC(Cn2cccn2)CC1 (stereo not drawn)	5	4
102	CCOC(=O)C1=C(C)N=c2sc(=Cc3ccco3)c(=O)n2C1c1ccc(F)cc1 (stereo not drawn)	-2	-8
103	CCOCCn1c(=NC(=O)c2ccc(S(C)(=O)=O)cc2)sc2cc(F)cc(F)c21	6	2
